miR-21 FLuc – miR-21 reporter, rising signal | 340,000 tested, under 10 active | HeLa miR-21 FLuc reporter, luciferase, 48 h | Potency, µM (doses to about 38.3 µM), for the others: at the highest dose reporter change, positive = more light; active = well fitted rising curve with a large enough effect; inconclusive = small, poorly fitted or top-dose-only effect; inactive = no such curve, though single readings can be large or run the other way;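 also: % of control where 0% means no effect; miR-21 action dims this reporter so a rising signal means less miR-21 action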
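HeLa cells endogenously expressing miR-21, stably carrying CMV-driven firefly luciferase with a downstream miR-21 binding site, 2000 cells/well. Titrations up to approximately 40 uM, 48 hours; luciferase luminescence read.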
GLA inh pH 4.5 – inhibitors of human alpha-galactosidase A at pH 4.5; P06280; purified enzyme, 4-MU-alpha-Gal fluorescence, pH 4.5; activity change, negative = inhibition, % at 105 µM; 230,000 tested, under 10 active; AID 1467; inconclusive = small, poorly fitted or top-dose-only inhibition, or a rising curve; inactive = flat fitted curve, though single readings scatter; no compound was filed as active;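 also: 0% = full activity with enzyme and -100% = basal without enzyme; dose as in the result columns while the protocol names 77 µM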
Target sequence (P06280 whole entry, looked up): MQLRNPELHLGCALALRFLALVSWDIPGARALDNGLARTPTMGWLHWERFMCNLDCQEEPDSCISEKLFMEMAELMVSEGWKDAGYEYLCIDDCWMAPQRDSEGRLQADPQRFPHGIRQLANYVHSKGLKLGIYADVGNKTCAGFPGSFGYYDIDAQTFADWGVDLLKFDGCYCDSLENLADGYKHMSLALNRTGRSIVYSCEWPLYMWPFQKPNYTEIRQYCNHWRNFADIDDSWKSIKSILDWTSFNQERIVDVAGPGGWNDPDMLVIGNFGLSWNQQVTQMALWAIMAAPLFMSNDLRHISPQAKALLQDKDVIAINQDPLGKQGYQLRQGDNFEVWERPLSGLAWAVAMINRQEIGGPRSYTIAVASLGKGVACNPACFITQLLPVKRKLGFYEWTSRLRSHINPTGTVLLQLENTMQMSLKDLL
Rango-impB inh – inhibitors of Rango-importin beta complex formation | Q14974 | Rango CFP/YFP FRET sensor + importin beta, 45 min | Potency, µM (series often up to 92.2 µM), for the others: at the top dose inhibition of complex formation | 340,000 compounds, 0.031% hits; active = rising FRET ratio curve, often small or poorly fitted; inconclusive = mostly compound fluorescence or quenching in the first reads; inactive = flat curves in all reads;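 also: potency is read from the fitted curve at half-maximal effect; 0% = DMSO wells and 100% = buffer wells lacking importin beta; nearly all actives have a fitted effect of over 15% in size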
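FRET biosensor (snurportin 1 IBB flanked by EYFP and cerulean), 50 nM, with compound 5 min, then 0.125 microM importin beta in PBS, 1 mM DTT, 0.02% Tween-20, 0.1% BSA. CFP/YFP ratio read after 45 min at room temperature; pre-read flags interference.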
Rango release inh – inhibitors of RanGTP-induced Rango-importin beta complex dissociation; O95149+P62826; Biochemical FRET Rango-importin beta, RanGTP-induced dissociation; Potency, µM (series often up to 46.1 µM), without a hit: top-dose activity change, negative = inhibition; 340,000 compounds, 0.071% hits; active means falling FRET ratio curve, often poorly fitted, with flat reads before Ran was added; inconclusive means other falling curves, or compound fluorescence or quenching; inactive means flat or rising ratio curve;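 also: potency is read from the fitted curve at half-maximal effect; % of control where 0% means no effect; nearly all actives have a fitted effect of over 45% in size; -100% = wells without RanGTP and RCC1; the record marks most hits as doubtful in a second field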
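Rango FRET biosensor (snurportin-1 IBB flanked by N-terminal EYFP and C-terminal CFP10) at 0.1 uM, with 0.25 uM importin beta in PBS, 1mM DTT, 0.02% Tween-20, 0.1% BSA. 0.6 uM Ran, 2mM GTP and 0.2 uM RCC1 were then added for 45 min at room temperature. Inhibition read as loss of FRET rise.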
* hit, by the source's call; ? = inconclusive; / = no result given; & = joins results of further samples.

Screens in order – miR-21 FLuc	GLA inh pH 4.5	Rango-impB inh	Rango release inh
COc1ccc(-c2nc(-c3cccc(C(F)(F)F)c3)no2)cc1OC
    0.7%	3.5	-4.3%	-8.9%
NS(=O)(=O)c1ccc(CCNc2nc(C(F)(F)F)nc3ccccc23)cc1
    20.7%	/	-2.7%	8.6%
Cc1cccc(CSc2nc3ccncc3n2CC(=O)Nc2cc(C)cc(C)c2)c1
    -7.1%	-11.5	3.6%	-6.0%
O=C(NCc1ccccc1)Nc1cccn(Cc2ccccc2Cl)c1=O
    11.9%	-6.1	-6.0%	14.3%
Cc1ccc(S(=O)(=O)N2CCN(S(=O)(=O)c3ccc(C)cc3)C2)cc1
    -3.6%	-7.0	0.4%	-12.1%
COc1ccc(CCN(C)C2CCCN(C(=O)c3ccnn3C)C2)cc1OC (configuration not stated)
    -4.9%	/	-0.1%	8.3%
CC12CCC(C(=O)N(c3ccc(Cl)cc3)C1=O)C2(C)C (configuration not stated)
    -4.6%	-3.5	1.2%	-12.7%
CC(C)c1ccc(-c2nc3c([nH]2)c(=O)n(C)c(=O)n3C)cc1
    2.1%	-1.2	2.9%	-0.1%
O=C(COc1ccc(NS(=O)(=O)c2ccc(F)cc2)cc1)N1CCOCC1
    -1.7%	5.7	0.3%	-20.1%
Cc1ccc(CN(C)Cc2cc(=O)oc3cc(C)c(Cl)cc23)cc1
    -1.0%	/	1.1%	10.5%

Other results.
Screens in order – miR-21 FLuc	GLA inh pH 4.5	Rango-impB inh	Rango release inh
COC(=O)c1sccc1NC(=O)Nc1ccc(C)cc1C
    -2.3%	/	-0.8%	33.8%
CN(C1CCCCC1)S(=O)(=O)c1ccc(SCC(=O)C(C)(C)C)nc1
    /	/	-3.0%	17.6%
CSC(SC)=C(C#N)C(=O)c1ccccc1
    -1.3%	1.9	0.5%	-7.6%
Cc1ccc(-c2csc(NC(=O)c3ccccc3Cl)c2C(=O)O)cc1
    4.0%	/	-0.2%	-5.3%
O=C(OCCN1CCOCC1)c1cccc(F)c1
    -3.4%	/	3.5%	-10.8%
COC(=O)c1cccc(NC(=O)Cc2ccsc2)c1
    -10.9%	/	-0.3%	-19.9%
CN(C)CCNc1c2c(c(C#N)c3nc4ccccc4n13)CCCC2
    -11.5%	8.8	?	?
Cn1c(=O)c2c(nc(N3CCCCC3)n2C)n(C)c1=O
    0.5%	3.0	-1.2%	9.7%
CS(=O)(=O)c1ccc(N2CCN(C3CC(=O)NC3=O)CC2)cc1 (configuration not stated)
    0.2%	6.6	-2.1%	1.4%
CCc1ccc2oc(=O)cc(CN3CCN(CCO)CC3)c2c1
    -17.0%	0.2	-0.4%	-3.1%

Other records.
Screens in order – miR-21 FLuc	GLA inh pH 4.5	Rango-impB inh	Rango release inh
C=CCN(CC=C)C(=S)NC(=O)c1ccc(OC)c(Br)c1
    5.2%	4.7	-0.2%	27.0%
COc1ccc(S(=O)(=O)NCc2nc3nc(C)cc(C)n3n2)cc1OC
    0.2%&0.2%	/	2.4%	6.8%
O=C(CNS(=O)(=O)c1ccccc1)NCC(=O)N1CCCCC1
    3.1%	/	-0.6%	-5.6%
O=C(NCc1cccnc1)c1ccc(NC(=O)c2cccc([N+](=O)[O-])c2)cc1
    22.5%	6.1	-1.4%	-4.3%
O=C(CNC(=O)C12CC3CC(CC(C3)C1)C2)N/N=C\c1ccccn1
    -8.7%	6.4	0.1%	8.5%
CN1CCN(S(=O)(=O)c2ccc(-c3ccc(Cl)cc3)cc2)CC1
    -7.6%	-11.5	-2.6%	-10.8%
Cc1ccc(NC(=O)c2c(-c3ccccc3Cl)noc2C)nc1
    6.8%	-0.4	-1.4%	-14.0%
O=C(Nc1cccc(-c2nc3ccccc3o2)c1)c1ccc(N2C(=O)C3C4C=CC(C4)C3C2=O)cc1 (configuration not stated)
    8.4%	4.1	-0.2%	?
Cc1c(C)c2ccc(OCC(=O)N3CCN(c4cccc(Cl)c4)CC3)cc2oc1=O
    5.1%	/	0.2%	-10.8%
O=C(O)COc1ccccc1/C=N/NC(=O)CN1CCN(S(=O)(=O)c2ccc(Br)cc2)CC1
    -6.4%	0.0	-3.7%	1.3%

Structures listed so far that have bromine:
Screens in order – miR-21 FLuc	GLA inh pH 4.5	Rango-impB inh	Rango release inh
C=CCN(CC=C)C(=S)NC(=O)c1ccc(OC)c(Br)c1
    5.2%	4.7	-0.2%	27.0%
O=C(O)COc1ccccc1/C=N/NC(=O)CN1CCN(S(=O)(=O)c2ccc(Br)cc2)CC1
    -6.4%	0.0	-3.7%	1.3%

More entries.
Screens in order – miR-21 FLuc	GLA inh pH 4.5	Rango-impB inh	Rango release inh
NC(=O)c1cc2cc(Cl)ccc2oc1=Nc1cccc(C(F)(F)F)c1
    -3.4%	-7.3	1.0%	21.8%
Cc1ccc(C(OC(=O)c2ccco2)C(=O)NC2CCCCC2)cc1 (configuration not stated)
    -4.2%	2.9	0.3%	9.1%
CC1CCN(C(=O)C(C)NCc2ccc(F)cc2)CC1 (configuration not stated)
    -2.5%	/	6.1%	11.8%
COc1ccc(OCCC(=O)OCC(=O)NCc2ccccc2)cc1
    -2.1%	3.0	-2.5%	6.9%
Clc1cccc2sc(N3CCOCC3)nc12
    /	/	-3.7%	0.8%
COc1ccc(-c2c(C)nn3c(N)c(-c4ccccc4)cnc23)cc1OC
    -43.3%	/	?	7.2%
CCC(C(=O)Nc1ccc(C(=O)N2CCCC2)cc1)c1ccccc1 (configuration not stated)
    3.9%	-1.7	-0.8%	-1.3%
C=CCOc1ccc(/C=C/C(=O)OCC(=O)NCC(=O)Nc2c(C)cc(C)cc2C)cc1
    /	/	0.9%	21.7%
Cc1ccccc1N1CC(C(=O)Nc2ccc(S(=O)(=O)NCC3CCCO3)cc2)CC1=O (configuration not stated)
    -0.8%	/	4.8%	-10.3%
Cc1ccc2c(c1)C(=O)CC(O)(C(F)(F)F)O2 (configuration not stated)
    1.0%	-1.9	-0.8%	?

Later entries:
Screens in order – miR-21 FLuc	GLA inh pH 4.5	Rango-impB inh	Rango release inh
O=C1Nc2ccc(F)cc2C12SCCS2
    6.5%	-14.0	-0.3%	0.7%
CCc1ccccc1NC(=O)CCNC(=O)Cn1ccc2ccccc2c1=O
    -1.0%	/	-0.6%	19.0%
CCOC(=O)C1CCN(c2c(N3CCN(Cc4ccccc4)CC3)c(=O)c2=O)CC1
    -1.8%	2.9	4.4%	-11.3%
Cc1ccc(N(Cc2ccccc2)C(=O)c2cc(S(=O)(=O)N3CCOCC3)ccc2N2CCCC2)cc1
    /	/	-3.5%	15.2%
Cc1ccc(-n2c(C)nn(CC3CC3)c2=O)cc1
    -9.1%	6.7	-0.9%	-3.2%
O=C(NNC(=O)c1cccnc1)NC12CC3CC(CC(C3)C1)C2
    -5.7%	3.8	1.7%	-9.8%
CCC(C)C(NC(=O)C1CCC(=O)N1C(=O)OCc1ccccc1)C(=O)NC(C(=O)N1CCCC1C(N)=O)C(C)CC (configuration not stated)
    -1.7%	/	0.7%	2.9%
CN(C)c1ccc(C(=O)C(O)c2ccc(C(C)(C)C)cc2)cc1 (configuration not stated)
    -4.7%	-3.9	4.1%	8.0%
Cc1cc(C)c(OCC(=O)N2CC=C(c3ccccc3)CC2)c(C)c1
    -3.9%	/	0.6%	7.6%
CCN(c1ccc2c(c1)OCO2)S(=O)(=O)c1cc(Br)cc2c1N(C(=O)C1CC1)CC2
    -3.8%	-9.3	3.8%	-12.3%

Next compounds
Screens in order – miR-21 FLuc	GLA inh pH 4.5	Rango-impB inh	Rango release inh
CC(C)Sc1nnc([C@H](Cc2c[nH]c3ccccc23)NC(=O)OC(C)(C)C)o1
    8.1%	-4.5	-4.5%	-5.0%
CCOC(=O)C1=C(C)OC(N)=C(C#N)C1c1ccccc1 (configuration not stated)
    -0.3%	4.4	-0.6%	-10.6%
O=C1OCCN1C(=O)[C@H]1[C@H](c2ccc([N+](=O)[O-])cc2)C(c2ccc(F)cc2)=NN1c1ccccc1
    /	-24.1	0.2%	14.3%
COc1cc(/C=C/CO)ccc1O[C@@H]1O[C@H](CO)[C@@H](O)[C@H](O)[C@H]1O
    /	/	-2.8%	8.0%
Cc1cc(C)n(CC(=O)NNC(=O)CCCOc2ccc(Cl)c(C)c2)n1
    2.2%	/	0.5%	-12.9%
COc1cccc(NC(=O)CN(C)S(=O)(=O)c2ccc(C)cc2)c1
    -8.3%	11.5	-0.5%	7.5%
O=C(CSc1n[nH]c(=O)n1Cc1ccco1)N1CCOCC1
    -0.3%	1.3	2.7%	0.2%
S=c1sscc1-c1ccccc1
    /	/	2.4%	-1.4%
O=C(NC1CCCCCC1)c1cc(-c2ccccn2)nc2ccccc12
    6.4%	12.3	4.6%	-23.1%
O=C(N/N=C/c1c(O)ccc2ccccc12)c1cccnc1
    22.4%	/	?	?

Quoted from the results shown, 4 compounds:
Screens in order – miR-21 FLuc	GLA inh pH 4.5	Rango-impB inh	Rango release inh
CC(C)Sc1nnc([C@H](Cc2c[nH]c3ccccc23)NC(=O)OC(C)(C)C)o1
    8.1%	-4.5	-4.5%	-5.0%
CCOC(=O)C1=C(C)OC(N)=C(C#N)C1c1ccccc1 (configuration not stated)
    -0.3%	4.4	-0.6%	-10.6%
O=C1OCCN1C(=O)[C@H]1[C@H](c2ccc([N+](=O)[O-])cc2)C(c2ccc(F)cc2)=NN1c1ccccc1
    /	-24.1	0.2%	14.3%
COc1cc(/C=C/CO)ccc1O[C@@H]1O[C@H](CO)[C@@H](O)[C@H](O)[C@H]1O
    /	/	-2.8%	8.0%

Arranged by SMILES length (highest first): three of the compounds above.
Screens in order – miR-21 FLuc	GLA inh pH 4.5	Rango-impB inh	Rango release inh
CC(C)Sc1nnc([C@H](Cc2c[nH]c3ccccc23)NC(=O)OC(C)(C)C)o1
    8.1%	-4.5	-4.5%	-5.0%
O=C(NC1CCCCCC1)c1cc(-c2ccccn2)nc2ccccc12
    6.4%	12.3	4.6%	-23.1%
S=c1sscc1-c1ccccc1
    /	/	2.4%	-1.4%

(more compounds)
Screens in order – miR-21 FLuc	GLA inh pH 4.5	Rango-impB inh	Rango release inh
COc1ccccc1NC(=S)NCC1CCCCC1
    11.0%	4.4	4.6%	16.0%
COc1ccc2c(c1)c1nc3n(c(=O)c1n2CC(=O)Nc1ccccc1)CCCS3
    -0.3%	/	-1.1%	0.7%
Cc1cccc(C(=O)NC(=S)N2CCN(C(=S)NC(=O)c3cccc(C)c3)CC2)c1
    -10.4%	-3.6	3.1%	6.3%
Cc1ccn2c(CNCc3cnn(C)c3)c(C(=O)N3CCCCCC3)nc2c1
    0.6%	/	-1.0%	-7.0%
C1=C(c2cccc3ccccc23)N2CCN=C2S1
    0.8%	-13.5	-2.7%	3.3%
CCN(CC)S(=O)(=O)c1ccc(NCCCn2ccnc2)c([N+](=O)[O-])c1
    0.5%	/	-2.5%	-6.1%
CCN(CC)CCn1c(=S)[nH]c2ccccc2c1=O
    -0.5%	-0.9	-2.4%	-1.1%
Cc1cc2nc(-c3ccc[nH]c3=O)n(Cc3cccc(F)c3)c2cc1C
    -30.6%	/	-3.7%	0.0%
O=c1cc(N2CCN(c3ccccc3)CC2)[nH]c(=O)n1-c1ccccc1Cl
    0.0%	-1.9	1.3%	6.5%
O=C(COC(=O)C12CC3CC(CC(O)(C3)C1)C2)Nc1ccc(Br)cc1F
    /	/	-0.1%	5.5%

New compounds follow:
Screens in order – miR-21 FLuc	GLA inh pH 4.5	Rango-impB inh	Rango release inh
COc1ccccc1N1CCN(C(=O)c2ccoc2C)CC1
    -6.0%	-4.8	2.0%	-29.3%
O=C1CC(=C(c2ccccc2)c2ccccc2)C(=O)N1CCCCN1CCN(c2cccc(Cl)c2)CC1
    18.7%	?	0.6%	4.1%
C/C(=N\NC(=O)C1CC1)c1ccc(Cl)cc1
    -17.5%	6.6	-0.1%	2.3%
Fc1ccc(NCc2cccnc2)cc1
    0.2%	-2.2	-0.1%	0.5%
O=C(NNC1CC(=O)N(c2ccc(Br)cc2)C1=O)c1cccs1 (configuration not stated)
    -17.9%	8.8	-2.6%	15.7%

Bioassay records deposited in PubChem BioAssay by National Center for Advancing Translational Sciences (NCATS).

Only part of the results is shown. The share of hits here may be higher or lower than overall.
